UCH37 inh = human UCH37 deubiquitinating enzyme inhibition | purified proteasome/UCH37, Ub-AMC cleavage fluorescence | inhibition, % (test concentration not listed) | AID 588478 | 0.33% of 330,000 active;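 active = mean of two replicates above 20%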;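 note: 0% = compound-free wells with enzyme and 100% = wells lacking proteasome; stock transfer was 100 nL into about 20 µL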
Target sequence (Q9Y5K5 whole entry, looked up): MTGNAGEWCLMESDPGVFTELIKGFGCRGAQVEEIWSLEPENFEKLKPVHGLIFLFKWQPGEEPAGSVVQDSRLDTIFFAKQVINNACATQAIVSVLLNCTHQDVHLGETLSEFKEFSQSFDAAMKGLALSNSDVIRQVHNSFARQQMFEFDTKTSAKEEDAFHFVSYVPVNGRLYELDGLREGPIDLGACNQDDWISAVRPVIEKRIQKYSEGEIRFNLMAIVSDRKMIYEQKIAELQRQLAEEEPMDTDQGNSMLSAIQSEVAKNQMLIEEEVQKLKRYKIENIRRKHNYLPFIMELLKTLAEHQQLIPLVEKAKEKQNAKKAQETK
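Material: human UCH37 enzyme supplied as purified proteasome complex. Measure: % inhibition of Ub-AMC cleavage fluorescence. Medium: pH 7.4 Tris-HCl (50 mM) with ovalbumin, ATP-MgCl2, DTT. Times: 30 min preincubation with enzyme, 25 min cleavage at room temperature. Detection: AMC fluorescence intensity at 355/460 nm.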
Bfl-1 A1 inh = inhibitors of the anti-apoptotic protein A1, read as caspase activation | MEF A1-2A-BIM cells, Caspase-Glo 3/7 luminescence, 3 h; percent of clofoctol response, vehicle zero | caspase activation, % (no concentration beside the values) | 0.066% of 330,000 active | AID 2462;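 active = over half of replicate activation scores above 10%, or exactly half above 10 with the replicate mean above 10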;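 note: wells of about 30 µL received 50 nL stock; many hits fall short of the cut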
FGF22 binding = FGF22 (human) thermal shift binding; Q9HCT0; recombinant FGF22 thermal shift, SYPRO orange fluorescence; percent of sucrose octasulfate shift, DMSO zero; calls only at 9.99 µM; 1.5% of 340,000 active;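 active = melting point raised past a set limit in the mean and every replicate; three in four hits are not shown here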
Target sequence (Q9HCT0 whole entry, looked up): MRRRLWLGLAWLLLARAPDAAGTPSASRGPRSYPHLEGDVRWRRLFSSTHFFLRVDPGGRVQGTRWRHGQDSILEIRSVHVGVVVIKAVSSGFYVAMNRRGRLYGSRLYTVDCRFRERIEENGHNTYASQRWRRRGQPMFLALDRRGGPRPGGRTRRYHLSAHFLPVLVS
Beta apoptosis = beta cell apoptosis inhibition | INS-1E cytokine-induced death, ATP luminescence, 48 h; percent of positive-control rescue, neutral wells zero | protection from apoptosis, % (no concentration beside the values) | 0.8% of 300,000 active | AID 435005;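 active = all replicates at 75% or more, or half of them and the mean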;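 note: 0% = cytokine-treated negative control wells and 100% = positive control rescue; higher means more ATP so stronger rescue from cytokine killing; wells of about 40 µL received 100 nL stock; the first replicate is given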
AF4-AF9 inh = inhibitors of human MLL-AF4/AF9 interaction; AID 651704; AlphaScreen, biotin-AF4 peptide binding to FLAG-AF9; inhibition, % at 10 µM; 0.47% of 350,000 active;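 active = every replicate reaching a set inhibition limit, whatever the replicate mean, cut at about 25% in these data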;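 note: 0% = plate neutral control median and 100% = total signal loss; the record names both 10 and 1 µM as test concentration; the first replicate is given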
T cruzi repl = blocks replication of Trypanosoma cruzi | T. cruzi beta-gal in NIH3T3, luminescence, 90 h | inhibition, % (no concentration beside the values) | 1.4% of 300,000 active;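 active = mean inhibition across valid replicates above about 55%, limit read from the data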;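 note: signal also drops with host cell toxicity which is not excluded here; 0% = plate median of DMSO wells and 100% = zero luminescence signal; higher percent means less beta-gal luminescence so fewer parasites; stock transfer was 50 nL into about 50 µL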
Ecoli rRNA inh = inhibits bacterial ribosomal RNA function over humanized ribosomes | GFP signal change (wild-type ribosome), % (test concentration not listed) | E. coli WT GFP vs humanized-ribosome RFP mutants, fluorescence, 24 h; active compounds read low; DMSO median 0, no signal -100 | 1.6% of 350,000 active | AID 720706;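 active = significant combined selectivity score with lowered wild-type GFP, culture density cut under 30%, mutant RFP and density less affected; inactive = any of these conditions unmet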; note: one replicate is shown; some compounds called inactive have numbers as strong as hits
Ecoli growth = blocks Escherichia coli growth. OD600 absorbance (concentration not given with the values). 0.21% of 330,000 active. AID 1053175. OD600, 23 h; active compounds read low;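 active = OD600 absorbance below the run mean of sample wells minus 3.6 SD, in any replicate, cut at about 0.56 in these data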;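 note: stock transfer was 300 nL into about 60 µL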
Ecoli rRNA inh OD600 = second read-out of Ecoli rRNA inh, no call of its own (marks repeat the call); OD600 change, %; measured here: OD600 growth;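 optical density of the mix in the first replicate; 0 = DMSO median and -100 = no signal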
Ecoli rRNA inh RFP = also measured in Ecoli rRNA inh; calls as there; RFP signal change, %; measured here: RFP humanized mutant strains;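 first replicate; 0 = DMSO median and -100 = no signal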
* = called active by the depositor; i = inactive; / = not tested or not shown; & = joins results of further samples. Not all compounds are listed, so the mix of outcomes need not match the whole.

SMILES	UCH37 inh	Bfl-1 A1 inh	FGF22 binding	Beta apoptosis	AF4-AF9 inh	T cruzi repl	Ecoli rRNA inh	Ecoli rRNA inh OD600	Ecoli rRNA inh RFP	Ecoli growth
COc1cccc(C2=NNC(=NCc3ccccc3)SC2)c1	3.1	0.6	i	26	1.2	13	-6	4	-2.5	0.71
O=C(CCCSc1nc2ccccc2[nH]1)NC1=NCCS1	0.7	0.6	/	-1	/	-16	/	/	/	0.72
C/C(N)=C(/C#N)C(=O)CSc1nc2ccccc2c(=O)n1CCCO	3.3	0.1	/	0	/	0	/	/	/	/
COc1ccc(C(C)=O)cc1CSc1nnc(Nc2ccc(C)cc2C)s1	0.7	-0.9	i	6	0.7	35	-51	-70	-8.6	0.68
COC(=O)c1cc(C#N)c(N2CCOCC2)nc1C	1.1	1.1	i	-2	-1.9	-8	17	3	-0.6	0.63
Cc1cc(C)nc(NS(=O)(=O)c2ccc(NC(=O)Cc3ccc(F)cc3)cc2)n1	0.3	-1.4	i	-1	0.1	19	14	12	4.2	0.62
Cc1cc(C)c2nc(SCC(=O)NCCC3=CCCCC3)cc(C)c2c1	5.1	0.2	/	-3	/	-2	/	/	/	0.72
CC(=O)N(O)CCCCCNC(=O)CCC(=O)N(O)CCCCCNC(=O)CCC(=O)N(O)CCCCCN	3.6	0.3	i	5	-6.7&-4.6	-6	/	/	/	/
Cc1ccc(C(=O)N2CCCC(Nc3ccc(F)c(F)c3)C2)cn1 (centres undefined)	1.6	0.0	i	3	-1.0	24	2	11	1.7	0.66
CC(Sc1nc2ccccc2c(=O)n1Cc1ccco1)C(=O)c1ccccc1 (centres undefined)	0.7	-1.2	/	-12	/	1	/	/	/	0.76
O=S(=O)(c1ccc(Cl)cc1)c1cnc(-c2cccnc2)nc1-c1ccccc1	7.5	0.0	/	-8	/	14	/	/	/	0.69
Cc1cccc2cc(COC(=O)c3ccccc3)c(=O)[nH]c12	0.1	-0.3	/	-4	/	5	/	/	/	0.75
CCCCCc1c(C)nc(N2CCOCC2)[nH]c1=O	2.8	0.3	/	0	/	12	/	/	/	0.67
Cc1ccc(-c2nnc(-n3ncc(C#N)c3N)c3ccccc23)cc1C	-0.6	0.6	i	2	-3.1	-16	/	/	/	0.76
CCCc1nnc2c(N(C)S(=O)(=O)c3ccccc3)nc3ccccc3n12	-1.0	0.2	/	-6	/	3	/	/	/	0.7
Cc1nc2ccccc2c2oc(C(=O)NCCCN3CCCC(C)C3)cc12 (centres undefined)	-0.1	0.0	i	15	-2.7	15	3	9	2.3	0.64
CCn1c(CNc2ccc(C)cc2C)nnc1SCC(=O)N1CCCc2ccccc21	3.3	0.5	/	-1	/	-5	/	/	/	0.67
CCN1CCN(c2ccc(S(=O)(=O)N3CCCCC3)cc2NC(=O)Cc2ccccc2)CC1	-1.4	-0.1	i	-4	-9.8	45	13	11	1.3	0.66
Cc1ccc(S(=O)(=O)N2CC(C(=O)O)=CC[C@H]2c2ccc3c(c2)OCO3)cc1	-7.4	1.6	i	-5	-2.1	/	-5	-3	0.1	/
COc1ccc(/C=N\NC(=O)CC(=O)Nc2cccc(Cl)c2)cc1OC	/	0.7	i	0	-1.2	4	14	12	-0.1	/
Cc1ccc(OCC(=O)NNC(=O)C(=O)N2CCCC2)c(C)c1	0.3	0.2	/	-5	/	-5	/	/	/	0.68
COc1ccc(-c2ccc(SC)nn2)cc1	3.2	-8.1	i	60	-0.4	4	3	5	-0.1	0.7
Cc1ccc(S(=O)(=O)CCC(=O)NC2CCCCC2)cc1	0.6	0.9	i	7	-3.2	/	6	9	-0.4	0.7
O=C(NCCCN1CCOCC1)c1cccnc1	-0.7	-0.8	i	3	3.8	-14	15	9	-2.7	0.69
O=C(NNC(=O)c1cccc2ccccc12)c1ccc(Cl)cc1Cl	1.2	/	i	/	1.5	/	-5	-13	-0.6	0.7
Other compounds
SMILES	UCH37 inh	Bfl-1 A1 inh	FGF22 binding	Beta apoptosis	AF4-AF9 inh	T cruzi repl	Ecoli rRNA inh	Ecoli rRNA inh OD600	Ecoli rRNA inh RFP	Ecoli growth
CCn1cc(C(=O)N[C@H](C(=O)NCCN2CCOCC2)C(C)C)c(=O)c2cc3c(cc21)OCO3	-16	0.0	i	5	1.2	1	-3	4	-1.3	0.57
CCOC(=O)CN1CCS(=O)(=O)CC1	1.6	1.0	i	-3	-2.9	-10	20	9	2.9	0.63
CC(CCc1ccccc1)NC(=O)C1CCN(S(=O)(=O)c2ccc(F)cc2)CC1 (centres undefined)	-0.9	-0.3	i	/	-1.1	7	0	-11	-1.0	0.67
O=C(Nc1ccccc1)N(Cc1ccccc1)CC(O)C(F)(F)F (centres undefined)	4.1	-0.2	/	0	/	-9	/	/	/	0.76
O=C(NCCc1ccc(F)cc1)c1ccc(S(=O)(=O)N2CCCC2)cc1	5.4	-0.8	i	4	0.6	/	-5	-11	-0.9	0.68
COc1nc(C)nc2c1sc1nc3c(cc12)COC(C)(C)C3	-15	-0.4	/	/	/	0	/	/	/	0.76
CCOC(=O)c1[nH]cnc1C(=O)N1CCC(C)CC1	0.3	0.1	i	0	-7.4	/	9	27	30	/
COC(=O)CCC(=O)N1CCCC(C(=O)c2ccc(Cl)cc2C)C1 (centres undefined)	3.2	-1.0	i	-4	1.9	-7	0	0	-2.1	0.68
O=C(CNc1ccccc1)Nc1cccc2ccccc12	-1.1	-2.0	i	-1	-2.4	-3	1	10	-0.7	0.6
CCC(c1nnnn1CCOC)N(Cc1cc2cc(C)c(C)cc2[nH]c1=O)CC1CCCO1 (centres undefined)	-3.1	0.3	/	-2	/	13	/	/	/	0.71
Cc1oc(-c2ccc(Cl)cc2)nc1CS(=O)CC(=O)NCCCN1CCOCC1 (centres undefined)	2.1	0.0	i	-10	-0.8	-3	9	13	1.4	0.7
COc1cc(NS(=O)(=O)c2ccc(Br)s2)cc(OC)c1	1.6	-1.5	/	4	/	0	/	/	/	0.72
CCc1ccccc1NS(=O)(=O)c1ccc2[nH]cc(C(=O)NC3CCCC3)c(=O)c2c1	3.9	0.6	/	2	/	5	/	/	/	0.65
Cc1ccc(C(=O)Nc2ccccc2Oc2ccccc2)o1	4.7	0.3	i	-5	1.4	-3	-46	-71	-13	0.72
Cc1ccc(C)c(CN2CCC(CNC(=O)CCc3nnc4ccc(N5CCCCC5)nn34)CC2)c1	1.7	-0.2	i	-1	3.9	18	5	9	8.1	0.71
Cc1ccc(NC(=O)N2CCCC2C(=O)NCc2ccc(Cl)cc2)cc1 (centres undefined)	6.0	0.7	i	-2	-11	1	8	9	-1.3	0.7
CCCCn1c(N)c(N(CC(C)C)C(=O)CSCC(=O)Nc2ccc(OC)cc2)c(=O)[nH]c1=O	-0.4	0.0	i	-6	-1.2	-4	9	9	-1.9	0.64
O=C(Nc1nc(-c2ccccc2)cs1)c1ccc2c(c1)S(=O)(=O)c1ccccc1C2=O	4.2	0.7	i	4	-4.5	-11	2	6	-0.4	0.75
COc1ccc(NC(=O)CNC(=O)CC23CC4CC(CC(C4)C2)C3)c(OC)c1	0.7	/	i	/	-44	/	-5	-18	-1.1	0.62
O=C(OCCN1C(=O)c2ccccc2C1=O)c1cc(=O)[nH]c2ccccc12	-3.1	-0.2	/	-5	/	2	/	/	/	0.72
CCOc1ccccc1N1CCN(C(=O)c2cc3c(s2)CCC3)CC1	-0.3	1.2	/	-6	/	10	/	/	/	0.73
COc1ccc(-c2nc3ccccc3n2CCC(C)C)cc1OC	2.5	0.3	/	5	/	12	/	/	/	0.76
Cc1ccn(S(=O)(=O)c2ccc(N3CCCC3=O)cc2)n1	6.2	-0.1	i	-6	0.2	-1	10	16	-1.6	0.7
Cc1sc2nc(CSC(C)C(=O)Nc3ccc(Cl)cn3)[nH]c(=O)c2c1C (centres undefined)	-6.1	-0.9	i	-5	-4.1	/	9	17	-0.4	0.73
COC(=O)C(C(=O)Nc1nc2ccccc2s1)C1CCCC1 (centres undefined)	3.7	-1.4	i	-3	-2.5	12	-16	-24	-0.9	0.72
Cc1ccc(N(C)S(=O)(=O)c2cccc(C(=O)NC3=NCCS3)c2)cc1	3.8	0.2	/	-5	/	-3	/	/	/	0.67
CCCc1[nH]nc2c1C1(CCN(C(=O)OCc3ccccc3)CC1)C(C#N)=C(N)O2	1.6	0.3	/	/	/	-9	/	/	/	0.68
CN1CCc2c(OCC(=O)N3CCC(Cc4ccccc4)CC3)cccc2C1=O	1.1	-0.7	i	16	-2.1	42	-25	-29	5.8	0.7

Some entries already given, reduced to Bfl-1 A1 inh and Ecoli growth.
compound	Bfl-1 A1 inh	Ecoli growth
Cc1oc(-c2ccc(Cl)cc2)nc1CS(=O)CC(=O)NCCCN1CCOCC1 (centres undefined)	0.0	0.7
COc1cc(NS(=O)(=O)c2ccc(Br)s2)cc(OC)c1	-1.5	0.72

An excerpt from above in order of formula weight, ascending:
SMILES	UCH37 inh	Bfl-1 A1 inh	FGF22 binding	Beta apoptosis	AF4-AF9 inh	T cruzi repl	Ecoli rRNA inh	Ecoli rRNA inh OD600	Ecoli rRNA inh RFP	Ecoli growth
Cc1ccn(S(=O)(=O)c2ccc(N3CCCC3=O)cc2)n1	6.2	-0.1	i	-6	0.2	-1	10	16	-1.6	0.7
COC(=O)C(C(=O)Nc1nc2ccccc2s1)C1CCCC1 (centres undefined)	3.7	-1.4	i	-3	-2.5	12	-16	-24	-0.9	0.72
CCOc1ccccc1N1CCN(C(=O)c2cc3c(s2)CCC3)CC1	-0.3	1.2	/	-6	/	10	/	/	/	0.73
O=C(NCCc1ccc(F)cc1)c1ccc(S(=O)(=O)N2CCCC2)cc1	5.4	-0.8	i	4	0.6	/	-5	-11	-0.9	0.68

Compound activity from PubChem BioAssay.
